Screening data: PubChem BioAssay, National Center for Advancing Translational Sciences (NCATS)
StopGo RLuc = lowers the Renilla signal of an FMDV 2A StopGo reporter; HEK cells with a luciferase reporter of 2A StopGo recoding; AID 1745857; Potency, µM (top dose mostly 57.5 µM), for the others: at the highest dose signal change, negative = less light; 120,000 tested, 0.32% active; active means well fitted falling curve with a large enough effect; inconclusive means small, poorly fitted or top-dose-only effect; inactive means no such curve, though single readings can be large or run the other way; further: nearly all actives have a fitted effect of over 55% in size; overnight with compound
StopGo FLuc = FMDV 2A StopGo reporter, firefly signal | HEK cells with a luciferase reporter of 2A StopGo recoding | 120,000 tested, 0.23% active | Potency, µM (titrated, usually from 57.5 µM), for the others: at the highest dose signal change, negative = less light; active = well fitted falling curve with a large enough effect; inconclusive = small, poorly fitted or top-dose-only effect; inactive = no such curve, though single readings can be large or run the other way; further: nearly all actives have a fitted effect of over 60% in size; overnight with compound
* hit, by the source's call; ? = inconclusive; & = joins results of further samples; [ ] = dose if it differs, or a comment. On the % scale 0 is the no-effect control and ±100 the full control effect; potency means the concentration at half of the fitted maximal effect.

SMILES	StopGo RLuc	StopGo FLuc
O=C(Nc1cccc2cccnc12)c1ccc(F)cc1	-11%	90%[activator]
COc1ccc(CCNC(=O)c2ccc3c(c2)N(Cc2cccc(C)c2)C(=O)c2ccccc2S3(=O)=O)cc1OC	12%	-9%
COc1cccc(NC(=O)/C(C#N)=C/c2c(C)n(Cc3ccc(Cl)cc3)c3ccccc23)c1	-4%	-3%
Cc1ccccc1C(=O)Nc1cccc(NC(=O)CC23CC4CC(CC(C4)C2)C3)c1	96%[activator]	-7%
Cc1ccc(CNC(=O)C2CCN(C(=O)c3csc(Nc4ccc(C)cc4)n3)CC2)cc1	?	?
O=C(Nc1ccccc1)N(Cc1cccs1)c1ccccn1	-4%	18%
COc1cccc(C(=O)Nc2ccc3c(c2)CCCN3C(=O)c2cccs2)c1OC	-25%	17%
C#CCN1CCC(C(=O)NC(C)c2cccc(C(F)(F)F)c2)CC1 (stereo not given)	6%	-4%
CCOC(=O)C1CCN(C(=O)COC(=O)c2cc(-c3cccs3)nc3ccccc23)CC1	12%	66%[activator]
Cc1ccc(-c2cc(C(=O)N3CCN(C(=O)c4ccco4)CC3)c3ccccc3n2)cc1	45%[activator]	134%[activator]
Cc1ccc(Cl)cc1NC(=O)NCc1nc(-c2ccccc2)oc1C	1%	0%
CC(C)NC(=O)CN1C(=O)CCn2nc(-c3cn(C)c4ccccc34)cc21	-16%	-14%
CCCSc1ncc(Cl)c(C(=O)Nc2ccc(S(=O)(=O)N(C)c3ccccc3)cc2)n1	41%[activator]	0%
COc1ccc(NC(=O)N2CCN3CCCCC3C2)cc1OC (stereo not given)	-4%	-9%
COC(=O)/C(C#N)=C\c1cc(Br)c(O)c(OC)c1	2%	13%
N#C/C(=C\c1ccc(Cl)s1)C(=O)NC1CC1	12%	8%
COc1ccc(C)cc1CN(C)C(=O)c1cc(=O)[nH]c2ccccc12	132%[activator]	32%[activator]
CCS(=O)(=O)N1CCC(C(=O)NCCC(C)C)CC1	-9%	-10%
CCn1cc(C(=O)OCC(=O)Nc2cc(Cl)ccc2C)c(=O)c2ccc(C)nc21	-18%	-22%
COc1cccc(CNC(=O)CSc2ncc3c(n2)-c2cc(Cl)ccc2N(C)S3(=O)=O)c1	-17%	-19%
O=C(CCn1nc(-c2ccccc2)c2ccccc2c1=O)Nc1ccc(Br)cc1	96%[activator]	2%
CCc1ccc(NC(=O)CSc2nc(=O)n(Cc3ccccn3)c3c2CCC3)cc1	?	?
S=C(Nc1ccccc1Cl)NC1CC1	0%	6%
Nc1ccccc1C(=O)NCc1ccncc1	-2%	0%
CCC(C(=O)Nc1cc(OC)ccc1OC)n1c(=O)c(C(F)(F)F)nc2ccccc21 (stereo not given)	-8%	-13%
Cn1cnc(S(=O)(=O)N2CCC(C(=O)N3CCN(c4cccc(C(F)(F)F)c4)CC3)CC2)c1	0%	10%
Cc1ccccc1C(C)NC(=O)c1ccc2c(c1)NC(=O)CS2 (stereo not given)	-12%[1.06 µM]	0%
CCN1CCN(c2ccc(NC(=O)c3ccc(Cl)c(S(=O)(=O)N(CC)CC)c3)cc2)CC1	-21%	-11%
CCOc1ccc(C(=O)Nc2ccc3nc(SCCOc4ccccc4)sc3c2)cc1	-8%	-3%
O=C1CSc2ccc(C(=O)Nc3cccc4ccccc34)cc2N1	-7%[1.06 µM]	13%
O=C(O)c1ccccc1NS(=O)(=O)c1ccc(N/N=C/c2cccs2)c([N+](=O)[O-])c1	0%	0%
C=CCc1ccccc1OCc1cccc(C(=O)O)c1	17%	69%[activator]
O=C(/C=C/c1ccccc1)Nc1nc(-c2cccs2)ns1	-4%	27%
CC(C)c1nc2cc3sc(C(C)C)nc3cc2s1	9%	0%
O=C(COC(=O)c1ccc2ccccc2n1)c1ccc(Cl)cc1	31%[activator]	84%[activator]
CCc1ccc(N2C(=O)N(CC(=O)C(C)(C)C)c3ccccc3S2(=O)=O)cc1	4%	-6%
COc1ccc(C2=CC(c3cccc(C)c3)n3nnnc3N2)cc1 (stereo not given)	9%	0%
O=c1oc2ccccc2c(NCc2ccccc2)c1NS(=O)(=O)c1cc(F)ccc1F	58%[activator]	-11%
CCC(=O)N1CCN(c2ccc(NC(=O)c3cc4ccccc4cc3OC)cc2)CC1	-15%	-2%
O=C(O)CC12CC3CC(C1)CC(O[N+](=O)[O-])(C3)C2	9%	9%
O=C(N/N=C/c1c2ccccc2cc2ccccc12)C1CC1	8%	23%
CN(Cc1ccc(F)cc1F)C(=O)c1cc(Br)ccc1O	165%[activator]	2%
Cc1cc(C(=O)CN2C(=O)NC(Cc3c[nH]c4ccccc34)C2=O)c(C)n1C (stereo not given)	-4%	0%
COc1ccc(OC)c(/C=C/C(=O)NC(C)(C)C)c1	288%[activator]	135%[activator]
COC(=O)C(C)N1C(=O)S/C(=C/c2ccc(Sc3ccccc3)cc2)C1=O (stereo not given)	?	?
CCC1CCCCN1CCCNC(=O)c1cc2c(Cl)nc3ccccc3c2s1 (stereo not given)	-2%	-15%
Cc1ccc(C)c(NC(=O)CCS(=O)(=O)c2cccc3nsnc23)c1	-7%	4%
CC(C)c1ccccc1NC(=O)/C=C/c1cccs1	17%	29%
CCC(=O)N1CCc2cc(Br)cc(S(=O)(=O)CCC(=O)N3CCN(c4ccc(OC)cc4)CC3)c21	-4%	-17%
Cc1ccc(-c2nc3cc(Cl)ccc3o2)cc1NC(=O)c1cc([N+](=O)[O-])ccc1N1CCOCC1	-1%&-2%	114%&75%[activator]

Next part
SMILES	StopGo RLuc	StopGo FLuc
CCCN(C)C(=O)c1nn(CCC)c(=O)c2ccccc12	4%	11%
Cc1ccc(-c2cc(C(=O)NCCc3ccccc3)c3ccccc3n2)cc1C	-1%	-7%
CC(=O)Nc1cc(NC(=O)Cc2nc(-c3ccccc3)oc2C)ccc1F	-11%	17%
CCc1ccccc1NC(=O)Cn1c(=O)n(Cc2ccco2)c(=O)c2sc3ccccc3c21	-13%	-8%
COc1cccc(CN(C(=O)c2oc3cc(C)ccc3c2C)C2CCS(=O)(=O)C2)c1 (stereo not given)	-2%	-2%
Nc1nc(CN2CCN(C(=O)c3ccc(Cl)c(Cl)c3)CC2)nc2ccccc12	-12%	-11%
CCc1ccc(CNC(=O)Cn2nc(C)c3nn(-c4ccc(Cl)cc4)c(C)c3c2=O)cc1	-3%	-11%
CCOc1ccc2nc(N3CCCC(C(=O)Nc4ccc(OC)cc4)C3)sc2c1 (stereo not given)	4%	44%[activator]
CCn1nc(C(=O)OCc2nc(-c3cccc(Br)c3)no2)c2ccccc2c1=O	-15%	-4%
CC(C)(C)c1ccc(C(=O)Nc2ccc(CCC(=O)O)cc2)cc1	14%	?
COc1ccc(NC(=O)c2oc3ccccc3c2NC(=O)c2cc(OC)c(OC)c(OC)c2)cc1	0%	12%
CCC(=O)N1N=C(c2ccc(F)cc2)CC1c1ccc2nccnc2c1 (stereo not given)	12%	22%
O=C(O)COc1ccc2cc(-c3ccc(OC(F)(F)F)cc3)c(=O)oc2c1	-4%	162%[activator]
COc1cccc(CN2C(=O)CN(C3CCCCC3)C(=O)C2c2ccc(OC)c(OC)c2)c1 (stereo not given)	0%&5%	31%&-11%
CN(CC(=O)N(C1CCCC1)C1CCS(=O)(=O)C1)c1ccc2ccccc2c1 (stereo not given)	3%	24%
CC(C)NCCOCCOc1ccccc1	-7%[1.06 µM]	-1%
CC(=O)c1c(C)[nH]c(C(=O)OC(C)C(=O)c2ccc(F)c(F)c2)c1C (stereo not given)	-23%	-13%
COP(=O)(OC)c1nc(-c2ccco2)oc1NCc1ccc(F)cc1	116%[activator]	11%
CCOc1ccc(OCC)c(NC(=O)c2cc(S(=O)(=O)N3CCCC3)cn2C)c1	202%[activator]	10%
O=C(COc1c(I)cc(Cl)c2cccnc12)NCC1CC1	-10%	-12%
COc1ccc(-c2ccc3c(N)c(C(=O)Nc4ccc(C(F)(F)F)cc4)sc3n2)cc1OC	?	?
NC1=NC(c2c[nH]c3ccc(F)cc23)n2c(nc3ccccc32)N1 (stereo not given)	-19%	-11%
CCN(CC)c1nc2c(c(=O)n(C)c(=O)n2C)n1CC	-3%	-1%
Cc1cc(C)n(-c2nc3ccccc3nc2N2CCN(c3cccc(C)c3C)CC2)n1	3%	15%
Clc1ccccc1Oc1ccc2nnc(-c3ccccc3)n2n1	9%	12%

Part of the list above in order of molar mass, lowest first.
SMILES	StopGo RLuc	StopGo FLuc
CCOc1ccc(OCC)c(NC(=O)c2cc(S(=O)(=O)N3CCCC3)cn2C)c1	202%[activator]	10%
COc1cccc(CN(C(=O)c2oc3cc(C)ccc3c2C)C2CCS(=O)(=O)C2)c1 (stereo not given)	-2%	-2%
CCn1nc(C(=O)OCc2nc(-c3cccc(Br)c3)no2)c2ccccc2c1=O	-15%	-4%

(list continues)
SMILES | StopGo RLuc | StopGo FLuc
CCC(=O)N1CCCc2cc(S(=O)(=O)N3CCC(C(=O)Nc4ccc(C#N)cc4)CC3)ccc21 | -3% | -15%
Cc1ccc(C(=O)O/N=C(\c2ccccc2)c2ccccn2)cc1 | 0% | -10%
CN(C)c1ccc(CNC(=O)C2CCN(S(=O)(=O)c3cn(C)cn3)CC2)cc1 | -7% | -16%
CC(C)c1nc2sc3c(NCCO)ncnc3c2c2c1COC(C)(C)C2 | 24% | 0%
Cc1ccc(-n2ccn(CC(=O)c3ccc(F)cc3)c(=O)c2=O)cc1C | 4% | 49%[activator]
Cc1ccc2c(CNCc3cccs3)c(C(=O)O)n(Cc3ccc(F)cc3)c2c1 | 27% | -20%
CCCCC(CC)CNC(=O)CCCc1nnc2n(CCC)c(=O)c3sccc3n12 (stereo not given) | 0% | -15%
COc1cccc(N2CC(NC(=O)C(c3ccccc3)c3ccccc3)CC2=O)c1 (stereo not given) | -11% | 5%
Cc1cccc(-c2nnn3c2nc(NCc2ccccc2)c2ccccc23)c1 | -12% | 141%[activator]
COc1ccc(NC(=O)CC2C(=O)N(c3ccc(C)cc3)C(=O)N2Cc2cccnc2)cc1 (stereo not given) | 0% | -12%
CCN(CC)CCNC(=O)CCc1ncc(-c2ccc(F)cc2)o1 | -11% | -10%
CCCCNc1nc(-c2ccncc2)nc2ccccc12 | 8% | 12%
CCOC(=O)c1c(NC(=O)COc2ccc(C(C)(C)C)cc2)sc2c1CCCC2 | -8% | -3%
COCCNC(=O)c1cnc2sc(N3CCCCC3)nn2c1=O | -2% | -3%
Nc1nonc1-c1nc2ccccc2n1Cc1ccc(Br)cc1 | -2% | -16%
COc1ccc(-n2ccn(Cc3ccccc3Cl)c(=O)c2=O)cc1OC | 51%[activator] | -7%
CCCCN(CC)C(=O)c1cc2c(=O)n3cccc(C)c3nc2s1 | ? | 0%&50%
CC(C)C(NC(=O)c1ccccc1)C(C)C | 12% | 5%
CCOC(=O)C(NC(=O)c1ccc(OC)cc1)(Nc1ccc(OC)cc1)C(F)(F)F (stereo not given) | 48%[activator] | 92%[activator]
COC(=O)CNC(=O)Cc1nn(C)c(=O)c2ccccc12 | -13% | -9%
COc1ccc2oc(=O)c(C(=O)N3CCN(c4cc(Cl)ccc4Cl)CC3)cc2c1 | -8% | -2%
COc1ccc(OC(=O)c2cn(-c3cccc(OC)c3)c(=O)c3ccccc23)cc1 | -11% | -27%
O=C(Nc1cccc(C(F)(F)F)c1)c1nc2ccccc2nc1N1CCCCC1 | 1% | -9%
Cc1cc(Cl)ccc1Oc1ccc(S(=O)(=O)N2CCCC2)cn1 | -1% | -14%
CC(C)C(CNC(=O)c1nn(C)c(=O)c2ccccc12)N1CCCC1 (stereo not given) | -15% | -19%
Cc1ccc(Nc2ncc(C(=O)NC3CCCC(C)C3C)c3ccccc23)cc1Cl (stereo not given) | 25% | -4%
CCc1ccc(N(CC)C(=O)Cn2nc(Cc3cccnc3)c3ccccc3c2=O)cc1 | 17% | -14%
Cc1noc(-c2ccc(-c3noc(-c4ccc(Cl)cc4)n3)cc2)n1 | -13% | -15%
CCCOc1ccc(Br)cc1C1C(C(=O)OCc2ccccc2)=C(C)Nc2nnnn21 (stereo not given) | 24% | -1%
CCOC(=O)c1c(NC(=O)c2ccc(S(=O)(=O)N3CCC(C)CC3)cc2)sc2c1CCN(CC)C2 | -2% | -5%
COc1cccc(NC(=O)COc2nc(C(C)C)c3c(c2C#N)CCCC3)c1 | -14% | -27%
CC(=O)c1ccc(NC(=O)CSc2nccn2C2CCCC2)cc1 | -13% | 18%
CCCCn1cnc2c1c(=O)n(CC(=O)Nc1ccc(F)c(Cl)c1)c(=O)n2CC(C)C | -13% | -5%
O=C(NCc1ccc(F)cc1)c1ccc(Cn2c(SCc3ccc(F)cc3)nc3cccnc32)cc1 | ? | 45%[activator]
CCCN(C(=O)Cn1nc(Cc2ccncc2)c2ccccc2c1=O)c1ccc(OCC)cc1 | -7% | -7%

Structures above that have a furan ring, fused or not:
SMILES | StopGo RLuc | StopGo FLuc
Cc1ccc(-c2cc(C(=O)N3CCN(C(=O)c4ccco4)CC3)c3ccccc3n2)cc1 | 45%[activator] | 134%[activator]
CCc1ccccc1NC(=O)Cn1c(=O)n(Cc2ccco2)c(=O)c2sc3ccccc3c21 | -13% | -8%
COc1cccc(CN(C(=O)c2oc3cc(C)ccc3c2C)C2CCS(=O)(=O)C2)c1 (stereo not given) | -2% | -2%
COc1ccc(NC(=O)c2oc3ccccc3c2NC(=O)c2cc(OC)c(OC)c(OC)c2)cc1 | 0% | 12%
COP(=O)(OC)c1nc(-c2ccco2)oc1NCc1ccc(F)cc1 | 116%[activator] | 11%

Rows were taken by chance; about 0.55% have a hit in one of these screens.
